2A StopGo – FMDV 2A StopGo reporter, luciferase signal; Potency, µM (doses to about 57.9 µM), for the others: top-dose signal change, negative = less light; human cells with a luciferase reporter of 2A StopGo recoding; control for the full effect not named in the record; hit rate 1.2% among 410,000; active = well fitted falling curve with a large enough effect; inconclusive = small, poorly fitted or top-dose-only effect; inactive = no such curve, though single readings can be large or run the other way; tested in HEK293T cells; also: % is scaled to controls: 0 for no effect and ±100 for the full control effect; nearly all actives have a fitted effect of over 45% in size; luciferase light after 4 h
RE007 growth inh – less growth of the S. pombe RE007 Vpr strain; S. pombe RE007 Vpr strain, BacTiter-Glo ATP luminescence, 24 h; control for the full effect not named in the record; Potency, µM (titrated, usually from 92.2 µM), for inactives: at the highest dose activity change, negative = less growth; hit rate 0.21% among 360,000; AID 651644; active = well fitted falling curve with a large enough effect; inconclusive = small, poorly fitted or top-dose-only effect; inactive = no such curve, though single readings can be large or run the other way;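 also: % is scaled to controls: 0 for no effect and ±100 for the full control effect; nearly all actives have a fitted effect of over 50% in size; the assay follows cell death caused by Vpr and the record does not say whether a fall means rescue or toxicity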
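Fission yeast strain RE007, carrying one chromosomally integrated HIV-1 vpr copy, was seeded at OD 0.01 in PMG+AL medium with 23 nL pinned compound. After 24 h at 30 °C and 99% humidity, viability was read by BacTiter-Glo luminescence.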
SARS PLP yeast – inhibitors of SARS-CoV papain-like protease in yeast; S. cerevisiae expressing SARS-CoV PLpro, growth rescue; control for the full effect not named in the record; AID 485353; Potency, µM (doses to about 32.9 µM), inactives show at the top dose activity, positive = growth rescue; hit rate 0.19% among 330,000; also: 0% is about no effect; nearly all actives have a fitted effect of over 55% in size; growth read by luminescence after 48 h
NS1 function inh – blocks influenza NS1 protein function; S. cerevisiae slowed by influenza A NS1, growth recovery by OD600; Potency, µM (series often up to 46.1 µM), without a hit: at the top dose activity, positive = more growth; hit rate 0.4% among 270,000; also: actives are rising curves; nearly all actives have a fitted effect of over 50% in size
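Recovery from NS1-induced slow growth read by OD600 in budding yeast switched to galactose assay medium (pH 6.0, -URA) at 1:100 dilution. Compound 23 nl per well; the matching strain lacking NS1 serves as control.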
Marburg entry inh – Marburg virus entry inhibition; Marburg virus pseudotyped entry inhibition, cell reporter; control for the full effect not named in the record; about a third of the inactives were read at about 46 µM; Potency, µM (highest dose often 37.8 µM), without a hit: top-dose activity change, negative = inhibition, usual class: inhibitors; hit rate 1.8% among 300,000; AID 540276; active = well fitted inhibition curve with a large enough effect; inconclusive = small, poorly fitted or top-dose-only effect, or effect the other way; inactive = flat fitted curve, though single readings scatter; tested in HEK293 cells; about a fifth of its hits are not listed in these tables; also: % is scaled to controls: 0 for no effect and ±100 for the full control effect; luciferase read-out
Cruzain inh noDet – inhibitors of Trypanosoma cruzi cruzain without detergent; P25779; purified cruzain, Z-FR-AMC fluorescence, no detergent; Potency, µM, inactives show max response, negative = inhibition, most hits filed as inhibitors; hit rate 2.3% among 200,000; AID 1476; active = well fitted curve in the direction sought with a large enough effect; inconclusive = small, poorly fitted or top-dose-only effect, or another doubt; inactive = no such curve, though single readings can be large; an effect the other way counts as inactive or inconclusive;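 also: plate controls were enzyme without inhibitor for no effect and buffer without enzyme for full effect; nearly all actives have a fitted effect of over 40% in size; top concentration of the series not given in the record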
Target sequence (P25779 123-467 limits assumed): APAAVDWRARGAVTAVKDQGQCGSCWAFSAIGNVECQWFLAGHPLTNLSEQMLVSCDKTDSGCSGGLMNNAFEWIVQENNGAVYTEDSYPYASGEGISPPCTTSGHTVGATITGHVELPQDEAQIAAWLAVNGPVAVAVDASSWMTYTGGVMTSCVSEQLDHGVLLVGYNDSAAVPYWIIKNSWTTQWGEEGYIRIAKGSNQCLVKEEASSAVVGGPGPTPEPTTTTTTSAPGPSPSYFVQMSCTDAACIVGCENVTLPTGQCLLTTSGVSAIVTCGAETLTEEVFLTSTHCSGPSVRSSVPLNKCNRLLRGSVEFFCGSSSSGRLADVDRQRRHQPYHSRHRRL
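Detergent-free condition (0.00005% Triton X-100) in acetate buffer pH 5.5 with DTT. 1.5 nM enzyme and compound were pre-mixed 15 min, then 2 uM Z-FR-AMC substrate added; reaction progress from fluorescence change between first and third reads (60 s).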
LASV entry inh – Lassa virus entry inhibition; Lassa virus pseudotype entry inhibition, cell reporter; control for the full effect not named in the record; Potency, µM (series often up to 37.9 µM), inactives show top-dose activity change, negative = inhibition, usual class: inhibitors; hit rate 1.2% among 300,000; active means well fitted inhibition curve with a large enough effect; inconclusive means small, poorly fitted or top-dose-only effect, or effect the other way; inactive means flat fitted curve, though single readings scatter; tested in HEK293 cells; also: % is scaled to controls: 0 for no effect and ±100 for the full control effect; nearly all actives have a fitted effect of over 50% in size; luciferase read-out
Cruzain Triton – cruzain (T. cruzi) inhibition with detergent. AID 1478. P25779. Potency, µM, for the others: max response, negative = inhibition, most hits filed as inhibitors. purified cruzain, Z-FR-AMC fluorescence, 0.01% Triton. hit rate 0.43% among 200,000; active = well fitted curve in the direction sought with a large enough effect; inconclusive = small, poorly fitted or top-dose-only effect, or another doubt; inactive = no such curve, though single readings can be large; an effect the other way counts as inactive or inconclusive;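 also: plate controls were neutral wells for no effect and buffer without enzyme for full effect; nearly all actives have a fitted effect of over 40% in size; top concentration of the series not given in the record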
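Read-out: AMC fluorescence (360 nm excitation, 450 nm emission), four reads over 2 min, first-to-third difference used. Conditions: cruzain 1.5 nM, Z-FR-AMC 2 uM, pH 5.5 acetate, 5 mM DTT, 0.01% Triton X-100.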
Starred values were filed as active, the others as inactive; u = inconclusive; x = no result given; & = joins results of further samples; [ ] = another dose, or the depositor's remark. Unless noted, calls follow the shape of the dose curve; as a rule, active means well fitted rising curve with a large enough effect; inconclusive means small, poorly fitted or top-dose-only effect; inactive means no such curve, though single readings can be large or run the other way. Potency is read from the fitted curve at half-maximal effect.

SMILES | 2A StopGo | RE007 growth inh | SARS PLP yeast | NS1 function inh | Marburg entry inh | Cruzain inh noDet | LASV entry inh | Cruzain Triton
COc1cccc(NC(=O)C2CC(=O)N/C(=N/NC(=O)c3ccc(C)cc3)S2)c1 (stereo not drawn) | -4% | 3% | 1% | 1% | u | x | -1% | x
CS(=O)(=O)N(CC(=O)NCCSCc1ccccc1Cl)c1ccc(F)cc1 | -12% | 42% | -2% | -36% | x | x | x | x
O=C(CSC1=NS(=O)(=O)c2cc(F)ccc2N1)Nc1ccc(F)cc1 | -5% | 10% | -10% | x | 12% | x | u | x
CCc1c(C)n2nc(C)cc2[nH]c1=O | -10% | -1% | 5% | 0% | 1% | -9% | 7% | 5.1%
Cc1nc2nc(C)c(CCC(=O)NC(C)c3ccc4c(c3)OCCO4)c(C)n2n1 (stereo not drawn) | 9% | 2% | 6% | 4% | 13% | -5% | -1% | 6.0%
Cc1nnc(SCC(C)C)[nH]c1=O | 1% | 5% | 9% | 3% | -3% | 0% | 8% | 5.7%
O=C(N/N=C/c1cccnc1)c1ccccc1Br | 19% | 1% | -2% | 5% | -6% | x | 23% | x
Cc1ccc(C(C)C)c(OCCSc2nc(-c3ccccc3F)nc3cc(=O)[nH]n23)c1 | -29% | x | x | x | x | u | 3%[46.1 µM] | 1.7%
COc1ccc2[nH]c(C)c(CCN(Cc3cccs3)C(=S)Nc3cccc(F)c3)c2c1 | -4% | -3% | -1% | u | -1% | u | x | 0.2%
Cc1ccc(C)c(S(=O)(=O)N2CCN(C(=O)CCCc3c[nH]c4ccccc34)CC2)c1 | u | 14% | x | x | u | x | u | x
CCn1c(=N)c(C(=O)NC2CCCC2)cc2c(=O)n3ccccc3nc21 | -5% | x | x | x | -11%[46.1 µM] | -1% | -15%[46.1 µM] | -9.1%
C=CCn1c(SCC(=O)NC(=O)c2cccn2C)nc2ccccc2c1=O | 13% | 11% | -1% | 4% | -7%[46.1 µM] | x | -11% | x
O=C(NCc1ccncc1)C1=NN(c2ccccc2)C(=O)CC1 | 8% | -14% | 1% | 2% | -2%[46.1 µM] | x | 15% | x
CCS(=O)(=O)Nc1cc(-c2nc3cccnc3s2)ccc1C | 39%[activator] | 3% | -14% | -22% | x | -22% | x | -1.6%
CCOC(=O)CSc1nc2sccc2c(=O)[nH]1 | -7% | 18% | 10% | 1% | -3% | -2% | -1% | 2.9%
COc1ccc(CC(=O)NCc2nn(-c3ccccc3)nc2C)cc1OC | -18% | -18% | -1% | -1% | x | x | x | x
O=C(NCCNC(=O)c1ccccc1[N+](=O)[O-])c1ccccc1[N+](=O)[O-] | -13% | -8% | x | x | 1% | x | 7% | x
CC(C)Cn1c(=O)c(CCC(=O)Nc2ccc(N3CCOCC3)cc2)nc2cc(Cl)ccc21 | 0% | 12% | 5% | 1% | x | x | x | x
CCOC(=O)C1(Cc2cccc(OC)c2)CCCN(S(=O)(=O)CC)C1 (stereo not drawn) | -15% | 7% | -1% | -1% | x | x | x | x
N/C(=N\OC(=O)c1ccc2c(c1)OCO2)c1ccncc1 | 18% | -19% | -6% | -1% | x | x | x | x
CCc1noc(C)c1C(=O)OCC(=O)c1ccccc1OC | -11% | -10% | -3% | -7% | -17%[46.1 µM] | x | -1%[46.1 µM] | x
CCN(C(=O)CSc1nnc(C)n1-c1ccccc1)C1CCS(=O)(=O)C1 (stereo not drawn) | -6% | -9% | 2% | 17% | -29%[46.1 µM] | x | 27% | x
COc1ccc(-c2n[nH]c(=S)n2C2CCCCC2)cc1 | u | 18% | 1% | 5% | 7% | 0% | -27% | -7.0%
COc1ccc(CC(=O)Oc2ccccc2C)cc1S(=O)(=O)N1CCOCC1 | -22% | -28% | 4% | x | 20% | x | 0% | x
COc1ccc(-c2nnc3ccc(SC)nn23)cc1 | -19% | 2% | -12% | -88% | -2% | -5% | -16%[14.3 µM] | 1.8%
CC1(C)Cc2c(sc3c2c(=O)n(-c2cccc(Cl)c2)c(=O)n3CC(N)=O)CO1 | -13% | 24% | -1% | 1% | x | x | x | x
NC1=NC2(CCCCC2)N(c2cccc(Cl)c2)C(N)=N1 | 8% | 1% | 1% | 2% | u | 3% | 4% | 2.4%
COC(=O)N/N=C(\C)c1ccc2ccccc2c1OC(F)F | -12% | -1% | -5% | -19% | 16% | 4% | -7% | -2.0%
COc1cccc(-c2nn(C)c3sc(C(=O)NCc4ccc(C)cc4)cc23)c1 | -23%&-6% | -4% | 6% | 12% | -25%&-4%[46.1 µM] | -6%&1% | u | -1.8%&2.4%
COc1ccc(NC(=O)CSc2oc(-c3ccco3)nc2S(=O)(=O)c2ccc(Br)cc2)c(OC)c1 | -8% | x | x | x | 1%[46.1 µM] | 12% | 6%[46.1 µM] | -3.7%
Cc1cc(C)cc(OC(=O)CCN2C(=O)C3C4C=CC(C5CC45)C3C2=O)c1 (stereo not drawn) | -12% | 1% | 0% | -63% | 3%[46.1 µM] | x | -5% | x
COc1cccc(/C=N/NC(=O)c2nnn(-c3nonc3N)c2C(C)C)c1 | -19% | 17% | 0% | 2% | x | x | x | x
CCC(C)[C@@H](C(=O)Nc1ccc(OC)c(OC)c1)N1Cc2ccccc2C1=O (stereo partly drawn) | -8% | 8% | 0% | -7% | x | 25% | x | -5.8%
CCc1c(C)nc2ccc(Br)cc2c1SCCC#N | u | 8% | -17% | -29% | u | -6% | u | -11%
CCCCn1c(O)c(C(CC)=NCCN2CCCCC2)c(=O)[nH]c1=O | -13% | u | 4% | -17% | -5% | 2% | 0% | 0.4%
O=C(Nc1ccccc1)Nc1ccc(C(=O)N2CCOCC2)cc1 | 20% | -25% | -21% | -3% | 9% | -15% | u | -1.3%
COCCNC(=O)C1CC(c2ccc([N+](=O)[O-])cc2)=NO1 (stereo not drawn) | -11% | 17% | -5% | 4% | x | -1% | x | -0.9%
CC(=O)c1ccc(N2CCN(C(=O)Nc3ccc(Cl)cc3)CC2)cc1 | 0% | 1% | -2% | x | 20%[46.1 µM] | x | 3% | x
Cc1ccc(-c2nn(CC(=O)NC(C)c3ccccc3)c(=O)c3ccccc23)cc1 (stereo not drawn) | -13% | 7% | -1% | 3% | -20%[46.1 µM] | 3% | -5% | 3.3%
CCCCC1S/C(=N/N=C/c2ccco2)NC1=O (stereo not drawn) | 5% | -4% | -1% | 2% | u | -30% | 4% | -3.0%
CC1CCc2nc(NC(=O)c3ccc(N4C(=O)CCC4=O)cc3)sc2C1 (stereo not drawn) | -26% | 23% | 16% | 16% | 2% | x | 2% | x
CC(=O)c1c(C)n(-c2ccc(C)cc2)c2ccc(O)cc12 | -2% | 8% | u | -6% | 2% | x | 13% | x
Cc1ccc(CNC(=O)CN2C(=O)C3CCCCN3c3ccc(C(=O)N(C)C)cc32)cc1 (stereo not drawn) | 12% | x | x | x | x | -2% | 6%[46.1 µM] | -2.0%
CCN(CC)C(=O)C1CCCN(Cc2ccc(N(C)C)cc2)C1 (stereo not drawn) | -4% | 1% | 0% | -1% | 7% | 3% | 6% | 2.8%
COCCCNC(=O)CCn1c(=O)c2ccccc2n(CC(=O)NCCc2ccc(OC)c(OC)c2)c1=O | -22% | 27% | 1% | x | u | x | 15% | x
O=C(Nc1ccc(Cl)cc1)c1ccc(-n2cccn2)c([N+](=O)[O-])c1 | -21% | 1% | 3% | 15% | 1% | -11% | -10% | -13%
C=C1c2cc(C)ccc2NC(=O)N1c1ccc(C)cc1 | u | -2% | -3% | 9% | 19% | 2% | 12% | 1.1%
CC(O)CNCCCOc1ccc(Cl)cc1C(C)(C)C (stereo not drawn) | -20% | 0% | 1% | 1% | u | x | -15% | x
CCOc1ccc(CC(=O)Nc2c(C(=O)c3ccccc3)oc3ccc(OC)cc23)cc1OCC | -22% | x | x | x | 8%[46.1 µM] | 6% | 6%[46.1 µM] | 0.6%
O=C(NCc1ccc2c(c1)OCO2)C1CCCN1C(=O)Nc1ccc(F)cc1 (stereo not drawn) | -3% | 7% | 8% | 3% | u | 3% | 0% | 5.3%

By substructure, those above containing a thiophene ring, fused or not
SMILES | 2A StopGo | RE007 growth inh | SARS PLP yeast | NS1 function inh | Marburg entry inh | Cruzain inh noDet | LASV entry inh | Cruzain Triton
COc1ccc2[nH]c(C)c(CCN(Cc3cccs3)C(=S)Nc3cccc(F)c3)c2c1 | -4% | -3% | -1% | u | -1% | u | x | 0.2%
CCOC(=O)CSc1nc2sccc2c(=O)[nH]1 | -7% | 18% | 10% | 1% | -3% | -2% | -1% | 2.9%
CC1(C)Cc2c(sc3c2c(=O)n(-c2cccc(Cl)c2)c(=O)n3CC(N)=O)CO1 | -13% | 24% | -1% | 1% | x | x | x | x
COc1cccc(-c2nn(C)c3sc(C(=O)NCc4ccc(C)cc4)cc23)c1 | -23%&-6% | -4% | 6% | 12% | -25%&-4%[46.1 µM] | -6%&1% | u | -1.8%&2.4%

Compound profiles, as listed above. Screens in order: 2A StopGo	RE007 growth inh	SARS PLP yeast	NS1 function inh	Marburg entry inh	Cruzain inh noDet	LASV entry inh	Cruzain Triton
Cc1cc(C)cc(OC(=O)CCN2C(=O)C3C4C=CC(C5CC45)C3C2=O)c1 (stereo not drawn) is listed with -12%	1%	0%	-63%	3%[46.1 µM]	x	-5%	x
CCCCC1S/C(=N/N=C/c2ccco2)NC1=O (stereo not drawn) is listed with 5%	-4%	-1%	2%	u	-30%	4%	-3.0%
Cc1nnc(SCC(C)C)[nH]c1=O is listed with 1%	5%	9%	3%	-3%	0%	8%	5.7%
CCN(CC)C(=O)C1CCCN(Cc2ccc(N(C)C)cc2)C1 (stereo not drawn) is listed with -4%	1%	0%	-1%	7%	3%	6%	2.8%

From PubChem BioAssay

This is a random part of the collection; overall some 4.8% were active at least once.
